CtBP-E1A blk – CtBP/E1A binding inhibition; AlphaScreen GST-E1A/His-CtBP binding, 1536-well; active compounds read low; control for the full effect not named in the record; activity change, % (no concentration beside the values); actives 0.49% (n = 340,000); AID 651724; in the data active means activity change below about -65%; inconclusive means about -30% to -65%; inactive means above about -30%; note: % is set by controls: 0 for no effect and ±100 for the full control effect
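Steps: dispense buffer (Tris pH 8.0, NaCl 300 mM, TCEP 1 mM, BSA, Tween 20); add 5X protein mix (GST-E1A, His-CtBP, 125 nM each); pin 23 nL compound; 2 h at 37 °C, dark; add 5X beads (50 ug/mL); 1 h; read.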
gsp ag – gsp mutant agonism; Potency, µM (top dose mostly 76.9 µM), without a hit: at the top dose activation (cAMP increase), most hits filed as activators; gsp mutant cells, cAMP HTRF, 30 min; control for the full effect not named in the record; actives 0.13% (n = 340,000); active = well fitted activation curve with a large enough effect; inconclusive = small, poorly fitted or top-dose-only effect, or another doubt; inactive = no such curve, though single readings can be large or run the other way; cell line not stated here;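 note: phosphodiesterase inhibitor Ro 20-1724 added with compounds to block cAMP breakdown; potency is the fitted concentration of half-maximal effect; nearly all actives have a fitted effect of over 60% in size; about a fifth of the inactives were tested at one dose only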
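Cells stably selected in G418 were plated at 2000/well, grown 16-24 hr, then given compounds in DMSO with the PDE inhibitor […] (300 uM solution added) for 30 min at 37C; cAMP was read by HTRF.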
Six1-Eya2 inh – inhibitors of human Six1/Eya2 interaction; activity change, % (concentration not given with the values); actives 0.56% (n = 360,000); Q15475+O00167; AlphaScreen GST-Six1/His-Eya2 binding, biochemical; active compounds read low; control for the full effect not named in the record; in the data active = activity change below about -65%; inconclusive = about -30% to -65%; inactive = above about -30%; note: % is set by controls: 0 for no effect and ±100 for the full control effect
Target sequence (O00167 whole entry, looked up): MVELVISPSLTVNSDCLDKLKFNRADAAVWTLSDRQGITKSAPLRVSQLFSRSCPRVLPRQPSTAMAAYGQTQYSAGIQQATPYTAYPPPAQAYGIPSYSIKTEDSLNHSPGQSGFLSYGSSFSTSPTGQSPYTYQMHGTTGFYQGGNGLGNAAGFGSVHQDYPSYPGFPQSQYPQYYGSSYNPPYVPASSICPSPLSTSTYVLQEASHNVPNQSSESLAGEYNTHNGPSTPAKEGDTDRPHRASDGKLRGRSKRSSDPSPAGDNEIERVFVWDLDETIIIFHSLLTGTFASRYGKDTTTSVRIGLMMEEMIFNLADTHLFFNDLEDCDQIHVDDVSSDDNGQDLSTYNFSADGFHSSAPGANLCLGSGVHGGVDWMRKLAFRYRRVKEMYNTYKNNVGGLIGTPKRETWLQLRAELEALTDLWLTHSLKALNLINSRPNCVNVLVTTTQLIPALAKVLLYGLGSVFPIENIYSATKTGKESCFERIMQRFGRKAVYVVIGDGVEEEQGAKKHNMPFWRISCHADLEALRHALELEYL
Target sequence (Q15475 whole entry, looked up): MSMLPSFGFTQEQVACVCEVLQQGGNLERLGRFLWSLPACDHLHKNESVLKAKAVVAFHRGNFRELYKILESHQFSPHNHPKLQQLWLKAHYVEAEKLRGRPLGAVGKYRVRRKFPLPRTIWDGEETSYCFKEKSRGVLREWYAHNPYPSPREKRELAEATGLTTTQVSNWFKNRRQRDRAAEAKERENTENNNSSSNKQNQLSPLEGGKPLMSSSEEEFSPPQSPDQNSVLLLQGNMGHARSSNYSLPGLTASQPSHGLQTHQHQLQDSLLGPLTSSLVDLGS
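AlphaScreen luminescence read after one hour at 37 °C in darkness. Pin-transferred compounds met GST-Six1 and His-Eya2 protein (5X stock 250 nM/500 nM) plus glutathione donor and Ni-chelate acceptor beads (5X, 50 ug/mL).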
gsp antagonist – antagonizes gsp, the McCune-Albright syndrome mutation; gsp-mutant cells, cAMP HTRF, 30 min; control for the full effect not named in the record; Potency, µM (highest dose often 76.9 µM), without a hit: top-dose activity change, negative = inhibition, usual class: inhibitors; actives 0.4% (n = 340,000); AID 624288; active = falling curve of any shape with a large fitted effect; inconclusive = falling curve, mostly with a smaller effect; inactive = flat or rising curve; cell line not stated here;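 note: intracellular cAMP measured with PDE inhibitor Ro 20-1724 present during compound exposure; potency is the fitted concentration of half-maximal effect; % is set by controls: 0 for no effect and ±100 for the full control effect; nearly all actives have a fitted effect of over 65% in size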
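Measurement of cellular cAMP by homogeneous time-resolved fluorescence following a 30 min compound exposure at 37C. The PDE inhibitor […] was present throughout; the assay buffer was DPBS with 0.05% BSA and 0.005% Tween 20.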
D2 potentiator – potentiates the human D2 dopamine receptor allosterically; potentiation, % (no concentration beside the values); AID 624464; DiscoveRx D2 beta-arrestin cells, luminescence, 90 min; 100% = 57 uM dopamine signal; actives 0.23% (n = 360,000); P14416; active = potentiation of 50% or more; inconclusive = 30% to 50%; inactive = 30% or less;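 note: compound concentration not given in the record; tested on top of an EC20 dose of dopamine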
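PathHunter D2 cells, attached overnight at 37 deg C, received compound in DMSO plus dopamine at EC20 (50 nM final) for 90 min at 37 deg C. Beta-arrestin recruitment was read as luminescence after 1 h with detection reagent at ambient temperature.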
D2 ag – agonists of human D2 dopamine receptor (beta-arrestin) | P14416 | AID 624465 | DiscoveRx PathHunter D2 beta-arrestin, luminescence, 90 min; 100% = 57 uM dopamine signal | activation, % (no concentration beside the values) | actives 0.084% (n = 360,000); in the data active = activation above about 40%; inconclusive = about 15% to 40%; inactive = below about 15%; note: compound concentration not given in the record; the text of the record calls up to 30% inactive
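Agonist mode: compounds alone added to overnight-plated D2 PathHunter cells for 90 min at 37 C, with 57 uM final dopamine (EC100) defining full response. Beta-arrestin recruitment detected by chemiluminescent reagent, read after 1 h at ambient temperature.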
Active calls of the source: *; [ ] = another dose, or the depositor's remark.

Screening Cc1ccc(NS(=O)(=O)c2cccc(C(=O)NCCc3c[nH]c4ccccc34)c2)c(C)c1 returned CtBP-E1A blk -22, gsp ag inconclusive, Six1-Eya2 inh -23, gsp antagonist -19%, D2 potentiator -6 and D2 ag 1.3.
`CCCCNC(=O)[C@H](Cc1c[nH]c2ccccc12)NC(=O)c1ccccc1Cl` gave gsp ag 0%, Six1-Eya2 inh 0, gsp antagonist 4%, D2 potentiator -4 and D2 ag 1.4.
Cc1ccc(CNC(=O)Cn2ccc3cc(S(=O)(=O)N4CCCC4)ccc32)o1 was read as CtBP-E1A blk -8, gsp ag -18%, Six1-Eya2 inh -1, gsp antagonist 7%, D2 potentiator -4 and D2 ag 1.3.
`CCC(C)(C)n1nnnc1C(c1cc(OC)ccc1OC)N1CCC(C(N)=O)CC1` (stereo not given) gave CtBP-E1A blk 0, gsp ag -45%[inhibitor], Six1-Eya2 inh 0, gsp antagonist -5%, D2 potentiator 2 and D2 ag -0.5.
Screening COc1ccc(NC(=O)CN(C)C(=O)CCNC(=O)c2ccccc2OC)cc1 returned CtBP-E1A blk -4, gsp ag -10%[15.4 µM], Six1-Eya2 inh 7, gsp antagonist -13%, D2 potentiator -23 and D2 ag -6.6.
Screening CCOC(=O)N1CCC(NC(=O)c2cnn3c2NC(c2ccco2)CC3C(F)(F)F)CC1 (stereo not given) returned CtBP-E1A blk 6, gsp ag -3%, Six1-Eya2 inh 5, gsp antagonist -10%, D2 potentiator -1 and D2 ag -1.7.
Screening CCCCOc1ccc(C(C)NC(=O)CCS(=O)(=O)Cc2ccccc2Cl)cc1 (stereo not given) returned CtBP-E1A blk 7, gsp ag 28%, Six1-Eya2 inh 3, gsp antagonist 17%, D2 potentiator 6 and D2 ag -1.2.
For CN(C)c1cc[n+](CC(=O)c2ccc(OC(F)F)cc2)cc1 the results were CtBP-E1A blk 7, gsp ag 5%[15.4 µM], Six1-Eya2 inh 6, gsp antagonist 9%, D2 potentiator -12 and D2 ag -0.6.
For Cc1csc(=Nc2ccccc2)n1CCO the results were CtBP-E1A blk 0, gsp ag -24%, Six1-Eya2 inh 3, gsp antagonist 7%, D2 potentiator -14 and D2 ag -0.4.
O=C(Cn1cnc2c(nnn2-c2cccc(F)c2)c1=O)Nc1ccc2c(c1)OCCO2 was read as CtBP-E1A blk 1, gsp ag inconclusive, Six1-Eya2 inh -1, gsp antagonist -8%, D2 potentiator -6 and D2 ag -4.0.
For Cc1occc1-c1nc(-c2ccncc2)no1 the results were CtBP-E1A blk 0, gsp ag -1%, Six1-Eya2 inh -3, gsp antagonist -3%, D2 potentiator -9 and D2 ag -0.7.
Screening CCCC(c1nnnn1CC1CCCO1)N1CCN(c2ccccc2)CC1 (stereo not given) returned CtBP-E1A blk 6, gsp ag -5%, Six1-Eya2 inh 1, gsp antagonist 7%, D2 potentiator 1 and D2 ag 8.9.
COCCCNC(=S)Nc1cc(C)c(C)cc1C was read as CtBP-E1A blk 0, gsp ag 5%, Six1-Eya2 inh 4, gsp antagonist 3%, D2 potentiator 1 and D2 ag 1.7.
COc1ccc(NC(=O)NC2CCCCC2C)cc1 (stereo not given) was read as gsp ag -1%, Six1-Eya2 inh 5, gsp antagonist 2%, D2 potentiator -3 and D2 ag -0.2.
For O=C(O)c1ccc(CSc2nnc(COc3ccccc3)o2)cc1 the results were CtBP-E1A blk 2, gsp ag -2%[15.4 µM], Six1-Eya2 inh -1, gsp antagonist inconclusive, D2 potentiator -8 and D2 ag -2.6.
Screening Cc1cc(C)c(C)c(S(=O)(=O)N(C)CCc2ccccn2)c1C returned CtBP-E1A blk 5, gsp ag 13%, Six1-Eya2 inh 6, gsp antagonist -10%, D2 potentiator -7 and D2 ag 0.8.
For Cc1ccccc1Cn1cc(NC(=O)c2cc(C3CC3)on2)cn1 the results were gsp ag -37%[inhibitor], Six1-Eya2 inh 2, gsp antagonist 6%, D2 potentiator -13 and D2 ag -0.2.
For CCC(OC(=O)C1=Cc2ccccc2OC1)C(=O)NCc1ccco1 (stereo not given) the results were gsp ag 24%, Six1-Eya2 inh 6, gsp antagonist -12%, D2 potentiator -21 and D2 ag 3.1.
Screening CCc1ccc(/C=C/c2c[nH]c3ccccc23)[n+](CC)c1 returned CtBP-E1A blk -23, gsp ag -83%[inhibitor], Six1-Eya2 inh inconclusive, gsp antagonist inconclusive, D2 potentiator -14 and D2 ag -1.8.
`O=C(NNC1CC(=O)N(c2ccc(Br)cc2)C1=O)c1ccccn1` (stereo not given) gave CtBP-E1A blk -14, gsp ag -26%, Six1-Eya2 inh 1, gsp antagonist -2%, D2 potentiator -6 and D2 ag -0.6.
CC(C)Oc1ccc(/C=N/NC(=O)c2nnn(-c3nonc3N)c2CN(C)c2ccccc2)cc1 was read as CtBP-E1A blk -5, gsp ag inconclusive, Six1-Eya2 inh -11, gsp antagonist inconclusive, D2 potentiator -22 and D2 ag -2.2.
For Cc1nc(C(=O)O)nn1-c1ccc([N+](=O)[O-])cc1 the results were CtBP-E1A blk 6, gsp ag -3%[15.4 µM], Six1-Eya2 inh -2, gsp antagonist 14%, D2 potentiator -1 and D2 ag 1.2.
For CC1CCC2(CC1)NC(=O)N(CC(=O)NC1(C#N)CCCCC1)C2=O (stereo not given) the results were CtBP-E1A blk 0, gsp ag 11%[15.4 µM], Six1-Eya2 inh 1, gsp antagonist 6%, D2 potentiator 6 and D2 ag -3.8.
CC1CC(C)CN(C(=O)COC(=O)C2CCN(S(=O)(=O)c3ccc4c(c3)OCCO4)CC2)C1 (stereo not given) was read as CtBP-E1A blk -1, gsp ag -9%[15.4 µM], Six1-Eya2 inh -2, gsp antagonist -10%, D2 potentiator -16 and D2 ag 1.3.
COCC(COS(N)(=O)=O)C(C)C (stereo not given) was read as CtBP-E1A blk 4, Six1-Eya2 inh 1, gsp antagonist 1%, D2 potentiator -5 and D2 ag -2.5.
O=C(NC(=S)Nc1ccc(NC(=O)c2ccco2)cc1)c1ccccc1 was read as CtBP-E1A blk -10, gsp ag 9%, Six1-Eya2 inh -8, gsp antagonist 0%, D2 potentiator 6 and D2 ag -5.3.
`O=C(NC1CC1)C(Cl)c1ccccc1` (stereo not given) gave CtBP-E1A blk -7, gsp ag 6%[15.4 µM], Six1-Eya2 inh 11, gsp antagonist 5%, D2 potentiator 2 and D2 ag -0.3.
Screening CCN1CCN(CC(=O)N/N=C/c2cc(Br)cs2)CC1 returned gsp ag 1%, Six1-Eya2 inh -3, gsp antagonist 1%, D2 potentiator -33 and D2 ag -6.4.
CCn1c(-c2cccn(Cc3ccccc3)c2=O)n[nH]c1=S was read as CtBP-E1A blk -4, gsp ag -31%[inhibitor], Six1-Eya2 inh -3, gsp antagonist inconclusive, D2 potentiator -9 and D2 ag -1.3.
Screening O=C(/C=C/c1ccccc1)NC1CCSC1=O (stereo not given) returned CtBP-E1A blk -4, gsp ag 12%, Six1-Eya2 inh 2, gsp antagonist 15%, D2 potentiator -7 and D2 ag -1.4.
`COc1ccc(C(=O)COC(=O)c2cc(=O)c3ccccc3o2)c(OC)c1` gave CtBP-E1A blk -10, gsp ag -47%[inhibitor], Six1-Eya2 inh 3, D2 potentiator -18 and D2 ag -2.3.
For Cn1c(C(=O)Nc2ccc3c(c2)OCO3)cc2c(=O)n(C)c3ccccc3c21 the results were CtBP-E1A blk 3, gsp ag 2%, Six1-Eya2 inh 7, gsp antagonist -29%, D2 potentiator -1 and D2 ag -1.1.
For O=C(c1ccccn1)c1ncc(C(F)(F)F)cc1Cl the results were CtBP-E1A blk 3, gsp ag -31%[inhibitor], Six1-Eya2 inh 1, gsp antagonist 0%, D2 potentiator 11 and D2 ag -0.5.
`Nc1nnc2cc(Cl)ccc2n1` gave CtBP-E1A blk -20, gsp ag 6%, Six1-Eya2 inh -24, gsp antagonist -14%, D2 potentiator -10 and D2 ag -7.0.
Screening CCCSc1ccc(-c2nn(-c3ccccc3)cc2/C=C(/C#N)C(=O)NCCCOC)cc1 returned CtBP-E1A blk 2, gsp ag 2%, Six1-Eya2 inh 2, gsp antagonist 0%, D2 potentiator -12 and D2 ag -6.9.
CCOc1ccc(NN=C(C(=O)OC)C(=O)OC)c([N+](=O)[O-])c1 was read as CtBP-E1A blk -9, gsp ag 5%[15.4 µM], Six1-Eya2 inh 4, gsp antagonist -3%, D2 potentiator 2 and D2 ag 5.2.
For CCc1ccc2oc(C(=O)N3CCN(c4ccc(OC)cc4)CC3)cc(=O)c2c1 the results were CtBP-E1A blk -13, gsp ag 12%[15.4 µM], Six1-Eya2 inh -25, gsp antagonist -13%, D2 potentiator -8 and D2 ag -5.0.
For COc1ccc(OCCN2CCN(C(=O)c3ccc(OC)cc3)CC2)cc1 the results were CtBP-E1A blk 2, gsp ag 11%[15.4 µM], Six1-Eya2 inh 3, gsp antagonist -6%, D2 potentiator -7 and D2 ag 2.5.
`CCN(CC)c1ccc(NC(=O)CSc2ccsc2[N+](=O)[O-])c(C)c1` gave CtBP-E1A blk -21, gsp ag -1%[15.4 µM], Six1-Eya2 inh -22, gsp antagonist -6%, D2 potentiator -3 and D2 ag -2.6.
Screening CC1CCCN(S(=O)(=O)c2ccc(CN3C(=O)c4cccnc4C3=O)cc2)C1 (stereo not given) returned CtBP-E1A blk -19, gsp ag 18%, Six1-Eya2 inh 1, gsp antagonist 10%, D2 potentiator 8 and D2 ag 3.8.

Overlap with the part before: 2 entries, followed by the next part.
`CCN(CC)c1ccc(NC(=O)CSc2ccsc2[N+](=O)[O-])c(C)c1` gave CtBP-E1A blk -21, gsp ag -1%[15.4 µM], Six1-Eya2 inh -22, gsp antagonist -6%, D2 potentiator -3 and D2 ag -2.6.
Screening CC1CCCN(S(=O)(=O)c2ccc(CN3C(=O)c4cccnc4C3=O)cc2)C1 (stereo not given) returned CtBP-E1A blk -19, gsp ag 18%, Six1-Eya2 inh 1, gsp antagonist 10%, D2 potentiator 8 and D2 ag 3.8.
COc1ccc(S(=O)(=O)Nc2ccc(F)cc2)cc1N(C)S(=O)(=O)c1ccc(Cl)cc1 was read as CtBP-E1A blk 48, gsp ag -17%, Six1-Eya2 inh 5, gsp antagonist inconclusive, D2 potentiator -1 and D2 ag -2.4.
Cc1cccc(OCC(O)Cn2c(NCCCOC(C)C)nc3c2c(=O)[nH]c(=O)n3C)c1 (stereo not given) was read as CtBP-E1A blk 0, gsp ag 6%, Six1-Eya2 inh 29, gsp antagonist -9%, D2 potentiator -8 and D2 ag -3.7.
COc1ccc(/C(O)=C/C(=O)C(=O)Nc2c(C)n(C)n(-c3ccccc3)c2=O)cc1 was read as CtBP-E1A blk -14, gsp ag -36%[inhibitor], Six1-Eya2 inh -19, gsp antagonist -15%, D2 potentiator 11 and D2 ag -1.9.
O=C(Nc1ccccc1[N+](=O)[O-])OCC=Cc1ccccc1 was read as CtBP-E1A blk -14, gsp ag 3%, Six1-Eya2 inh inconclusive, D2 potentiator -4 and D2 ag -5.2.

Compound activity as filed in PubChem.
